Screening data deposited in PubChem by several laboratories.
Mtb hypoxia rep – reduces hypoxia-regulated biosensor signal in M. tuberculosis | M. tuberculosis hypoxia-regulated fluorescent reporter, fluorescence | fluorescence inhibition, % (no concentration beside the values) | hit rate 0.1% among 300,000;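 active means 35 to 45% if threefold the growth effect, above 45% if 1.5-fold the growth effect; inactive means the rest, general growth blockers included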;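 further: wells of about 50 µL received 100 nL stock; 0% = vehicle wells and 100% = reference inhibitor wells; whole bacteria with a GFP reporter of the hypoxia response; strong numbers were not always called active; many hits fall short of the cut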
Bead autofluor – flagged as autofluorescent in microsphere protease counterscreen | compound autofluorescence counterscreen, microsphere flow cytometry; stronger effect = higher value | fluorescence intensity (test concentration not listed) | hit rate 3.1% among 360,000;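 active means at least 3 SD above the mean of all compounds, about 16000 in these data; inconclusive means too few beads counted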;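 further: 100 nL of 1 mM stock went into each well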
Sa ugtP lethal – growth inhibition of S. aureus ugtP deletion strain. S. aureus RN4220 ugtP deletion, OD600 growth, 16 h; some inactives read as strong as hits. growth inhibition, % (no concentration beside the values). hit rate 0.54% among 330,000;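 active means z-score under -3 and OD600 up to 0.15 on both plates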;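 further: plate controls were untreated wells for no effect and antibiotic for full effect; wells of about 80 µL received 100 nL stock; the first replicate is given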
BJeLR viability – kills HRASV12-expressing BJeLR cells; inhibition, % (test concentration not listed); BJeLR (HRASV12) viability, CellTiter-Glo ATP luminescence, 48 h; reference of the scale not given here; AID 1554; hit rate 0.17% among 300,000;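 active means replicate mean above 50%; inconclusive means above 50% but judged a plate artefact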;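 further: 50 nL library stock added to about 25 µL; numbers are from one replicate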
PrP UTR inh – inhibition of PrP 5' UTR reporter expression; cell-based PrP 5' UTR mRNA reporter, plate reader; hit rate 0.35% among 340,000; inhibition, % (test concentration not listed); AID 488862;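 active means every replicate at 50% or more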;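 further: 0 = median of the neutral control wells; tested in H4 reporter cells; numbers are from one replicate; inactives centre near -14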
RN4220 kill – kills Staphylococcus aureus RN4220; AID 1259311; inhibition, % (test concentration not listed); hit rate 0.33% among 330,000; S. aureus RN4220 growth, OD600, 16 h;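 active means z-score of -3 or lower and OD600 up to 0.18 on both plates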;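 further: plate controls were untreated cells for no effect and reference antibiotic for full effect; stock transfer was 100 nL into about 80 µL; one replicate is shown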
Mtb hypoxia rep growth – recorded beside Mtb hypoxia rep, whose call it bears; growth inhibition, %; measured here: M. tuberculosis growth (absorbance);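 0% = vehicle and 100% = reference antibiotic; read after six days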
* = called active by the depositor; ? = inconclusive; / = not tested or not shown. Compounds as they come; 4.1% or so of the library scored in one or more.

Each structure is followed by: Mtb hypoxia rep	Mtb hypoxia rep growth	Bead autofluor	Sa ugtP lethal	BJeLR viability	PrP UTR inh	RN4220 kill
CC(C)Cc1nc(SCC(=O)NCC2CCCO2)c2c(=O)n(C)c(=O)n(C)c2n1 (stereo not given)
    0	-13	4567	2	4	-10	4.7
CC(C)(C)n1ncc2c(=O)n(CC(=O)N3CCCC3)cnc21
    11	9	4153	3	3	-10	4.8
O=C(CSc1ncccn1)N1CCCc2ccccc21
    2	2	4212	25	/	-19	11
CCOc1ccc(N2C(=O)C3Sc4[nH]c(=O)sc4C(/C=C/c4ccccc4)C3C2=O)cc1 (stereo not given)
    9	-7	2794	7	-1	-11	6.6
O=C(NCCNC1CCCCC1)c1ccco1
    11	10	3614	13	-15	-7	1.7
Cc1ccc(C(=O)NC(=S)Nc2cccc(-c3nc4ccccc4s3)c2)cc1
    -3	9	7713	-2	-12	-17	0.7
CCCCN(Cc1ccccc1)C(=O)C1CCN(S(=O)(=O)c2c(C)noc2C)CC1
    11	-5	6990	17	1	-24	8.7
COc1ccc(CNC(=O)CCNS(=O)(=O)c2ccc(Br)s2)cc1
    8	1	6072	-1	4	-37	1.8
CC(=O)Nc1ccc(OCC(O)CN2C(C)(C)CC(O)CC2(C)C)cc1 (stereo not given)
    5	1	1989	3	15	-1	2.0
COc1cc(C(=O)N/N=C(\C)c2ccc3c(c2)OCO3)cc(OC)c1OC
    /	/	4017	/	17	-23	/
CCC[n+]1c(C)sc2c(OC)ccc(OC)c21
    16	4	3862	5	9	-17	5.5
Cc1ccccc1NC(=O)CSc1nc(N)c(C#N)cc1C#N
    4	3	16586*	-2	-4	-1	-1.9
Cc1ccc(-n2nnc(-c3cnc4ccccc4c3)n2)cc1
    3	11	3945	-7	-3	-10	1.2
Cc1nn(C)cc1S(=O)(=O)N1CCN(Cc2ccc(F)cc2Cl)CC1
    5	1	?	-2	5	-6	6.9
CCCCOc1ccc(CSCCN)cc1Cl
    2	3	4472	18	-4	-22	-4.9
CC(C)CCNC(=O)C(c1ccco1)N(Cc1ccc(F)cc1)C(=O)c1snc(C(N)=O)c1N (stereo not given)
    3	10	19358*	2	3	1	2.3
COCCN1C=C2C(=O)C(C)(OC(=O)c3cccs3)C(=O)C=C2C=C1CCCC(=O)OC (stereo not given)
    16	6	2834	3	-8	-17	2.8
O=C(CCc1nnc2ccc(NCc3ccco3)nn12)N1CCN(c2ccccc2)CC1
    -2	4	4192	14	-5	-5	6.2
CC[C@H]1CC2CN3CCc4c([nH]c5cc(OC)ccc45)[C@](C(=O)OC)(C2)[C@H]13
    /	/	5046	10	12	/	0.3
CCN(CC)S(=O)(=O)N1CCN(S(=O)(=O)N2CCOCC2)CC1
    13	7	3990	-4	-2	-33	6.4

Part of the list above in order of SMILES length, highest first:
Each structure is followed by: Mtb hypoxia rep	Mtb hypoxia rep growth	Bead autofluor	Sa ugtP lethal	BJeLR viability	PrP UTR inh	RN4220 kill
CC[C@H]1CC2CN3CCc4c([nH]c5cc(OC)ccc45)[C@](C(=O)OC)(C2)[C@H]13
    /	/	5046	10	12	/	0.3
CC(C)CCNC(=O)C(c1ccco1)N(Cc1ccc(F)cc1)C(=O)c1snc(C(N)=O)c1N (stereo not given)
    3	10	19358*	2	3	1	2.3
COCCN1C=C2C(=O)C(C)(OC(=O)c3cccs3)C(=O)C=C2C=C1CCCC(=O)OC (stereo not given)
    16	6	2834	3	-8	-17	2.8
CC(C)Cc1nc(SCC(=O)NCC2CCCO2)c2c(=O)n(C)c(=O)n(C)c2n1 (stereo not given)
    0	-13	4567	2	4	-10	4.7
CCCCN(Cc1ccccc1)C(=O)C1CCN(S(=O)(=O)c2c(C)noc2C)CC1
    11	-5	6990	17	1	-24	8.7
Cc1ccc(C(=O)NC(=S)Nc2cccc(-c3nc4ccccc4s3)c2)cc1
    -3	9	7713	-2	-12	-17	0.7
CC(=O)Nc1ccc(OCC(O)CN2C(C)(C)CC(O)CC2(C)C)cc1 (stereo not given)
    5	1	1989	3	15	-1	2.0
Cc1nn(C)cc1S(=O)(=O)N1CCN(Cc2ccc(F)cc2Cl)CC1
    5	1	?	-2	5	-6	6.9
CCN(CC)S(=O)(=O)N1CCN(S(=O)(=O)N2CCOCC2)CC1
    13	7	3990	-4	-2	-33	6.4
COc1ccc(CNC(=O)CCNS(=O)(=O)c2ccc(Br)s2)cc1
    8	1	6072	-1	4	-37	1.8
Cc1ccccc1NC(=O)CSc1nc(N)c(C#N)cc1C#N
    4	3	16586*	-2	-4	-1	-1.9
CCC[n+]1c(C)sc2c(OC)ccc(OC)c21
    16	4	3862	5	9	-17	5.5
O=C(CSc1ncccn1)N1CCCc2ccccc21
    2	2	4212	25	/	-19	11
O=C(NCCNC1CCCCC1)c1ccco1
    11	10	3614	13	-15	-7	1.7
CCCCOc1ccc(CSCCN)cc1Cl
    2	3	4472	18	-4	-22	-4.9

More results follow:
Each structure is followed by: Mtb hypoxia rep	Mtb hypoxia rep growth	Bead autofluor	Sa ugtP lethal	BJeLR viability	PrP UTR inh	RN4220 kill
COc1ccc(NC(=O)c2ccc(-c3csc(C)n3)cc2)cc1
    13	8	/	4	4	-78	2.4
OC(CNCC1COc2ccccc2O1)COc1ccc(Cl)cc1 (stereo not given)
    -2	5	3789	-5	-1	-9	-1.7
COc1ccc(CN(Cc2nc3ccccc3c(=O)[nH]2)C(=O)C(C)(C)C)cc1
    /	/	3217	3	3	-5	2.5
CC(C)(C)NC(=O)COC(=O)c1nsc(Cl)c1Cl
    /	/	3987	0	0	1	-0.8
Cc1ccc(C)c2nc(SCC(=O)NCc3cccs3)c(C#N)cc12
    2	1	9125	0	1	-20	-0.5
COc1ccc(C(CNC(=O)c2ccc(-c3cccc(C(F)(F)F)c3)o2)N2CCOCC2)cc1 (stereo not given)
    -2	-11	?	6	23	-25	-3.5
[N-]=[N+]=CC(=O)OC[C@H](N)C(=O)O
    /	/	5781	/	-9	3	/
C/C(=N\Nc1nc2ccccc2[nH]1)c1ccc([N+](=O)[O-])cc1
    /	/	3891	/	-8	-9	/
O=C(CCN1C(=O)C2CC=CCC2C1=O)Nc1ccc(S(=O)(=O)N2CCCCC2)cc1 (stereo not given)
    -10	-1	6509	7	/	-16	3.4
FC(F)Oc1ccccc1C=Nn1cnc2ccccc21
    -12	-8	/	-19	/	/	-0.8
Fc1cccc(C=NNC(=S)Nc2ccccc2Cl)c1
    1	-2	/	93*	/	/	1.0
O=C(NC1(C(=O)O)CCCC1)c1ccccc1
    5	6	4341	2	/	-11	1.2
CC1(C)CC(NC(=O)C2CCCCC2C(=O)O)CC(C)(C)N1 (stereo not given)
    2	3	?	4	7	-5	1.9
O=C(CCCN1C(=O)/C(=C/c2ccccc2Cl)SC1=S)N1CCCC1
    11	20	5317	0	1	-26	4.3
O=C(COC(=O)c1ccc2c(c1)OCO2)Nc1ccccc1OC(F)F
    2	8	8172	5	/	-24	-2.5
Cc1cccc2c(CC(=O)Nc3ccccc3)noc12
    3	-3	8960	8	7	-3	0.7
CCCOc1ccc(-c2nnc(-c3cccs3)o2)cc1
    /	/	2192	0	6	-23	7.1
O=C(NCCCN1CCCC1=O)c1cc(=O)c2ccccc2o1
    12	10	3039	-4	1	-19	-14
CC(C)Cc1nn2c(N)c(C=C3C=Nc4ccccc43)c(=O)nc2s1
    -7	14	/	5	/	/	7.2
CCOc1cc(C2NC(=O)CCC2[N+](=O)[O-])cc(Br)c1OC (stereo not given)
    11	6	3766	-1	1	1	0.4
COc1cc(/C=N/NC(=O)CCC(=O)Nc2ccc(C)cc2)ccc1O
    /	/	2051	/	-5	-19	/
CC(=O)c1c(COC(=O)c2cccc(C)c2)nc2ccccc2[n+]1[O-]
    5	-5	3250	3	-17	-9	4.4
Fc1ccccc1CSc1ncnc2c1oc1ccccc12
    4	6	19470*	-9	1	-14	6.3
C=CCn1c(SCC(=O)N2CCc3ccccc3C2)nc2ccccc2c1=O
    8	10	3222	-12	2	-5	3.3
Cc1nn(CC(C)C)c(Cl)c1C(=O)N(c1ccc(Cl)cc1F)S(C)(=O)=O
    0	-5	3020	13	3	-30	5.3
CCOc1ccc(CN(C)C(=O)CCNC(=O)c2ccco2)cc1
    -10	-1	3526	0	/	3	-0.2
Cc1[nH]c2ccccc2c1C(=O)C(C)OC(=O)c1ccc(NC(=O)CC#N)cc1 (stereo not given)
    -5	2	5559	-7	-3	-10	1.3
CC(C)c1ccc(C=NNC(=O)C(=O)NCCCN2CCOCC2)cc1
    4	4	/	8	/	/	1.6
COc1ccc(CC(=O)Nc2ccc(S(=O)(=O)Nc3nccc(C)n3)cc2)cc1
    7	2	5765	0	-8	-4	4.9
COc1ccc(C(=O)N2CCc3cc(OC)c(OC)cc3C2)cc1OC
    4	2	3831	9	0	-23	9.2
Cc1cc2c(N)cccc2nn1
    /	/	6357	/	1	-4	/
CCCCCc1nc2ccccc2c(=O)n1N
    /	/	4314	3	-1	-12	-0.9
CCOC(=O)CN(C(=O)COc1nc(-c2ccccc2)cc(C)c1C#N)c1ccccc1C
    4	4	/	-8	4	/	5.0
C/C(=C\C(=O)c1ccc(C)cc1)Nc1cccc(O)c1
    16	6	11654	7	10	-78	-0.5
NS(=O)(=O)c1ccc(CNC(=O)c2ccc(NS(=O)(=O)c3ccc4[nH]c(=O)[nH]c4c3)cc2)cc1
    7	7	5902	3	14	-8	-0.3
O=C1CN(C(=O)/C=C/c2ccccc2)CCN1
    6	-7	3139	3	0	-21	2.2
COc1ccccc1C(=O)Nc1ccc(S(=O)(=O)N2CCCCC2)cc1
    2	7	3783	6	6	-9	1.1
O=C1N[C@@H](c2ccccc2)COC(=O)[C@H](Cc2ccc(F)cc2)CC/C=C/C[C@H]1CC(=O)N(CCO)Cc1ccccc1
    -14	-1	3428	-14	/	-17	-6.4
CC1(C)Cc2c(sc3ncn4nc(CCC(=O)O)c(=O)nc4c23)CO1
    8	6	4250	10	4	-23	-0.7
COC(=O)c1c(N)c(C#N)c2n1CCCCC2
    0	11	11422	0	5	-1	3.5

2 entries drawn at random from the list so far:
Each structure is followed by: Mtb hypoxia rep	Mtb hypoxia rep growth	Bead autofluor	Sa ugtP lethal	BJeLR viability	PrP UTR inh	RN4220 kill
NS(=O)(=O)c1ccc(CNC(=O)c2ccc(NS(=O)(=O)c3ccc4[nH]c(=O)[nH]c4c3)cc2)cc1
    7	7	5902	3	14	-8	-0.3
COc1ccc(C(=O)N2CCc3cc(OC)c(OC)cc3C2)cc1OC
    4	2	3831	9	0	-23	9.2

The listing continues.
Each structure is followed by: Mtb hypoxia rep	Mtb hypoxia rep growth	Bead autofluor	Sa ugtP lethal	BJeLR viability	PrP UTR inh	RN4220 kill
COc1cccc(/C=N/NC(=O)CCCC(=O)Nc2ccc(Br)cc2)c1
    /	/	8839	/	2	-12	/
CCOc1ccccc1C(=O)Nc1nn[nH]n1
    9	-1	4879	-3	5	-20	4.7
COc1ccc(-c2cc(C(=O)Nc3cccc(C(C)=O)c3)no2)cc1
    3	6	19306*	4	-9	-50	3.4
O=C(COC(=O)c1ccc(S(=O)(=O)N2CCCC2)cc1)Nc1cccc(Cl)c1
    -2	-1	3852	20	/	-32	2.8
CCCS(=O)(=O)N1CCCC(C(=O)N2CCN(c3ccccn3)CC2)C1 (stereo not given)
    11	-5	2761	4	4	-11	6.6
CCc1cc(-c2n[nH]c(C)c2Oc2ccc(C(C)C)cc2)c(O)cc1O
    14	10	22495*	99*	-6	-11	86*
Cc1cc(-c2nc(C)c(C(=O)NNC(=O)NC(C)C)s2)no1
    12	16	4884	7	-14	-17	1.6
Cc1c(-c2ccccc2)nc2ccccc2c1C(=O)Nc1ccncc1
    2	-1	5566	6	-1	-28	5.3
O=C(CN1C(=O)S/C(=C\c2ccccc2)C1=O)Nc1cc([N+](=O)[O-])ccc1O
    -3	4	3309	18	-2	-15	14
O=C(COC(=O)CCc1nc2ccccc2n1-c1ccccc1)Nc1ccc(N2CCCCC2)cc1
    3	2	9929	-4	1	-38	3.2
CCOc1ccc2nc(SCC(=O)c3ccc(O)cc3O)sc2c1
    -3	-8	4049	11	-7	/	4.2
